Compound activity from PubChem BioAssay.
Menin-MLL FL inh: menin-MLL binding inhibition, fluorescein peptide; Fluorescence polarization, fluorescein-MLL peptide displacement from menin; FP activity change, % at 61.4 µM; 290,000 tested, under 10 active; AID 1766; inconclusive = falling polarisation curve, or a change in total fluorescence; inactive = total fluorescence flat and polarisation flat or rising; no compound was filed as active; the % refers to the polarisation; negative = inhibition;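 also: % of control where 0% means no effect; inhibitors lower the polarisation; unlabelled MLL peptide was the positive control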
CtBP-E1A blk: blocks the CtBP interaction with E1A. AlphaScreen GST-E1A/His-CtBP binding, 1536-well; stronger effect = lower value; control for the full effect not named in the record. activity change, % (no concentration beside the values). hit rate 0.49% among 340,000. AID 651724; in the data active means activity change below about -65%; inconclusive means about -30% to -65%; inactive means above about -30%; also: % is scaled to controls: 0 for no effect and ±100 for the full control effect; compound concentration not given in the record
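Protein mix (5X: 125 nM each GST-E1A, His-CtBP) was incubated with pinned compound 2 h at 37 deg C in dark, in 50 mM Tris pH 8.0 buffer with 300 mM NaCl. Glutathione donor and nickel acceptor beads followed; AlphaScreen signal read after 1 h.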
ClpP mod: qHTS Assay for Activators of ClpP; ATP-dependent Clp protease proteolytic subunit (Bacillus subtilis (strain 168)), P80244; purified B. subtilis ClpP, FRET peptide cleavage, 20 min; Potency, µM (series often up to 57.5 µM), for the others: at the highest dose activity change, negative = active; hit rate 1.9% among 340,000; AID 651965, 2013; active = well fitted falling curve with a large enough effect; inconclusive = small, poorly fitted or top-dose-only effect; inactive = no such curve, though single readings can be large or run the other way; also: potency is read from the fitted curve at half-maximal effect; the source files actives as falling curves though it sought activators and does not explain the sign; nearly all actives have a fitted effect of over 65% in size; many hits overshoot -100%
Target sequence (P80244 whole entry, looked up): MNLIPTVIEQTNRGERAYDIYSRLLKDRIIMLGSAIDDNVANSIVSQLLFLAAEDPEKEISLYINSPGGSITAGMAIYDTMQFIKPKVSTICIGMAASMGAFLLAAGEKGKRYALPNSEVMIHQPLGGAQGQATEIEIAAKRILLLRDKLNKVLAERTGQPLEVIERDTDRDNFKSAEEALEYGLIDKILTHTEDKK
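ClpP 10 microg/mL final, pH 8 Tris/KCl buffer with BSA, glycerol, Tween-20; compound pinned in; FRET-FV substrate; RT 20 min; Ex320/Em430; ΔFRET vs ADEP 5.8 microM, DMSO, no enzyme.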
Sfp inh: inhibitors of Bacillus subtilis Sfp phosphopantetheinyl transferase; Biochemical Sfp PPTase activity, qHTS; Potency, µM, for inactives: max response, negative = inhibition, most hits filed as inhibitors; hit rate 3.5% among 310,000; active = well fitted inhibition curve with a large enough effect; inconclusive = small, poorly fitted or top-dose-only effect, or another doubt; inactive = no such curve, though single readings can be large or run the other way;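 also: the enzyme is Sfp with the accession as filed and its product quenches rhodamine fluorescence; potency is read from the fitted curve at half-maximal effect; 0% = enzyme reaction without inhibitor and -100% = no enzyme wells; top concentration of the series not given in the record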
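Step 1, compound plus 15 nM Sfp-PPTase, 15 min, room temperature. Step 2, add rhodamine-CoA (5 uM) and BHQ-2-YbbR (12.5 uM). Step 3, read 525/598 nm fluorescence at 0 and 30 min.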
TRPV1 PAM: enhances activation of the human vanilloid receptor TRPV1; potentiation, % at 8.33 µM; hit rate 0.02% among 320,000; TRPV1-expressing cells, Fluo-8 calcium influx, capsaicin EC20 potentiation; host cell line not named in the record; control for the full effect not named in the record; Q8NER1; active means potentiation above 80%; inconclusive means 30% to 80%; inactive means below 30%; also: 0% is about no effect
Target sequence (Q8NER1 whole entry, looked up): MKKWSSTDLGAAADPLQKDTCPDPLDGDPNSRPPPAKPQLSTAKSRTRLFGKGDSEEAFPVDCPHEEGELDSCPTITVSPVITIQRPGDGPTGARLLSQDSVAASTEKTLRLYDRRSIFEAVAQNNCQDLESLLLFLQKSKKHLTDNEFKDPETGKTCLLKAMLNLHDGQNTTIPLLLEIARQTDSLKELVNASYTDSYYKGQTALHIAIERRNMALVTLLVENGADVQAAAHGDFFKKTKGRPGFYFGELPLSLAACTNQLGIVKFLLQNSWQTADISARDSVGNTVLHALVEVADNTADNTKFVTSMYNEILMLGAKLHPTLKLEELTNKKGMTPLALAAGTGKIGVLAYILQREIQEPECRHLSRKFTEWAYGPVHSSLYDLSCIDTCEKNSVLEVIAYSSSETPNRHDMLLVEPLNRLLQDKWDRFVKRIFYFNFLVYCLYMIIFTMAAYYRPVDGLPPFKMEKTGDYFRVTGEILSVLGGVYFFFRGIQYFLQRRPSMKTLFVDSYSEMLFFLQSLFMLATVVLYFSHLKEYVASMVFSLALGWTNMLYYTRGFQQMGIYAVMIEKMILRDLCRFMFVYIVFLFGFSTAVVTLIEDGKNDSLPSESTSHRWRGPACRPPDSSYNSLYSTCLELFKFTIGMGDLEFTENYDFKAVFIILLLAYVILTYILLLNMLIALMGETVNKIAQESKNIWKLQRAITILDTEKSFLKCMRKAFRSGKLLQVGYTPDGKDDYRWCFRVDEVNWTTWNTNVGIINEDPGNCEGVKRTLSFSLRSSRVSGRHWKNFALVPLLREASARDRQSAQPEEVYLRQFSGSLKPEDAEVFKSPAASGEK
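TRPV1-expressing cells were cultured overnight at 35.5C and loaded with Fluo-8 calcium dye for 40 to 90 min at room temperature. After a 10 s baseline, compound was added and calcium influx was read kinetically for 3 min (ex 480/em 520 nm).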
gsp agonist: gsp mutant agonism. gsp mutant cells, cAMP HTRF, 30 min; control for the full effect not named in the record. Potency, µM (titrated, usually from 76.9 µM), for inactives: top-dose activation (cAMP increase), hits mostly activators. hit rate 0.13% among 340,000. AID 624287; active = well fitted activation curve with a large enough effect; inconclusive = small, poorly fitted or top-dose-only effect, or another doubt; inactive = no such curve, though single readings can be large or run the other way; cell line not stated here;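 also: phosphodiesterase inhibitor Ro 20-1724 added with compounds to block cAMP breakdown; potency is read from the fitted curve at half-maximal effect; nearly all actives have a fitted effect of over 60% in size; about a fifth of the inactives were tested at one dose only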
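Cells stably selected in G418 were plated at 2000/well, grown 16-24 hr, then given compounds in DMSO with the PDE inhibitor […] (300 uM solution added) for 30 min at 37C; cAMP was read by HTRF.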
gsp antag: antagonists of gsp mutant (McCune-Albright syndrome); Potency, µM (doses to about 76.9 µM), for the others: at the top dose activity change, negative = inhibition, usual class: inhibitors; hit rate 0.4% among 340,000; gsp-mutant cells, cAMP HTRF, 30 min; control for the full effect not named in the record; active = falling curve of any shape with a large fitted effect; inconclusive = falling curve, mostly with a smaller effect; inactive = flat or rising curve; cell line not stated here;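 also: intracellular cAMP measured with PDE inhibitor Ro 20-1724 present during compound exposure; potency is read from the fitted curve at half-maximal effect; % is scaled to controls: 0 for no effect and ±100 for the full control effect; nearly all actives have a fitted effect of over 65% in size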
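HTRF cAMP measurement after 30 min RT detection following 30 min, 37C compound treatment alongside […] (added as 300 uM solution) in G418-selected cells seeded at 2000/well and grown 16–24 h.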
Numbers without * were called inactive; ? = inconclusive; · = no result given; & = joins results of further samples; [ ] = another dose, or the depositor's remark. Rows are unselected. Share with any hit: about 5.3%.

SMILES	Menin-MLL FL inh	CtBP-E1A blk	ClpP mod	Sfp inh	TRPV1 PAM	gsp agonist	gsp antag
CC[C@]12c3[nH]c4ccccc4c3CCN1C(=O)C(CC(=O)NC/C=C(\C)CCC=C(C)C)C[C@@H]2C(=O)N1CCN(C(=O)C2CC2)CC1 (some centres undefined)	·	-4	0.6%	·	·	·	-5%
CCOC(=O)c1sc(NC(=O)CN2C(=O)c3cccc4cccc(c34)C2=O)nc1C	-0.7	11	-22%	-27%	1	4%	2%
Cn1cc(Cl)c(-c2n[nH]c(=S)n2C2CCCCC2)n1	-3.8	-8	·	25%	7	-16%[15.4 µM]	·
Cc1cc(C)cc(NC(=O)c2cccc(NC3=NC4CS(=O)(=O)CC4S3)c2)c1 (centres undefined)	1.1	-1	-1.1%	4%	24	2%	-3%
O=C1CNCc2[nH]c3ccccc3c2N1c1ccccc1	2.6	-2	-7.8%	-1%	-4	?	-1%
Cc1ccccc1OCCSc1nc(N(C)C)nc(N(C)C)n1	·	6	·	-14%	4	10%	-13%
O=C(Cc1ccccc1)N1O[C@H]2C=C[C@@H]1CC2	·	2	0.0%	·	·	·	4%
CCOC(=O)C1CCCN(C(=O)CCc2ccccc2)C1 (centres undefined)	1.1	5	-3.7%	4%	-16	-6%	1%
CCOC(=O)C1CCN(C(=O)C2CCCN2S(=O)(=O)c2ccc(Cl)cc2)CC1 (centres undefined)	-1.3	12	4.1%	1%	1	-50%[inhibitor]	7%
O=C(CSc1nnc(-c2ccco2)n1-c1ccccc1)NCc1ccc2c(c1)OCO2	0.1	-6	-1.7%	-6%	-14	3%	-6%
Cc1ccccc1OCCn1c(C)nc2ccccc21	-1.3	-4	·	-16%	-8	?	-8%
CCCC(=O)n1nc(-c2ccco2)nc1SCc1ccccc1	?	-4	0.6%&2.0%	50µM*	-2	-86%[inhibitor]	-20%
COc1ccccc1NC(=O)NCC(=O)Nc1c(C)cccc1C	0.4	1	-1.3%	17%	-4	-13%[15.4 µM]	6%
COC(=O)c1ccc(N=Cc2c(C(F)(F)F)[nH][nH]c2=O)cc1	-1.8	-1	·	9%	6	-1%[15.4 µM]	?
Cc1noc(C)c1S(=O)(=O)N1CCN(c2ccc([N+](=O)[O-])cc2)CC1	·	·	-1.3%	6%	1	16%	6%
COC(=O)C(=Nc1ccccc1)/C(C(=O)C(=O)N(C)c1ccccc1)=C(\O)c1ccccc1	-0.5	3	·	-15%	2	-29%	1%
CCOC(=O)c1ccc(NC(=O)c2ccc3c(c2)OCO3)cc1	5.0	3	-1.2%	19%	5	9%	-6%
CCc1ccc(-n2c(=O)c3c(C)c(C(=O)N(C)C)sc3n(CC(=O)NCC3CCCO3)c2=O)cc1 (centres undefined)	0.8	12	·	7%	4	-2%[15.4 µM]	-2%
CN(C)c1ccc(C(=O)OCc2cc(=O)n3ccsc3n2)cc1	·	5	0.5%	·	·	17%[15.4 µM]	-7%
Cc1ccc(CS(=O)(=O)c2ncn[nH]2)cc1	3.2	11	·	-16%	-1	?	-3%
O=C(CCNS(=O)(=O)c1cccc(C(F)(F)F)c1)NC1CC1	·	2	-0.6%	·	-2	0%	16%
Cc1ccc(C(=O)OCC(=O)NC(=O)NCc2ccccc2)cc1C	·	9	3.4%	·	14	19%	13%
CCCNC(=O)COC(=O)c1ccc(N2CCCC2)c([N+](=O)[O-])c1	3.6	-19	-0.2%	17%	-21	0%[15.4 µM]	2%
COc1ccc(C(C(=O)NC2CCCCC2)N(C(=O)c2sc(C)nc2C)c2ccccc2C)cc1 (centres undefined)	-1.1	-9	-0.8%	14%	-4	-12%	-12%
Cc1ccc(S(=O)(=O)N(CC(=O)N(C(C)C)C(C)C)C(=O)N2CCN(C)CC2)cc1	0.6	5	-1.1%	5%	-5	-18%	12%
SMILES	Menin-MLL FL inh	CtBP-E1A blk	ClpP mod	Sfp inh	TRPV1 PAM	gsp agonist	gsp antag
CCN1C(=O)/C(=C\c2cccs2)C(C(=O)OC)=C1C	-3.4	-1	-3.4%	-1%	-2	3%	-8%
Cc1ccc(NC(=O)NCCN2CCN(c3ccccc3)CC2)cc1Cl	1.3	2	-1.3%	10%	14	8%	11%
COc1cccc(-c2ccc(SCC(=O)N3CCN(c4ccccc4)CC3)nn2)c1	2.2	-3	·	1%	-7	-12%[15.4 µM]	?
Cc1cc(C(=O)C(=O)NC(C)C)c(C)n1-c1ccc([N+](=O)[O-])cc1	0.8	-2	1.2%	11%	·	-28%	5%
CCC(NC(=O)CCCc1ccccc1)c1ccccc1 (centres undefined)	11	5	-1.4%	13%	-23	0%	9%
S=c1[nH]nc(-c2ccco2)n1/N=C/C(Cl)=C/c1ccccc1	1.9	3	·	?	-1	0%	-24%
COc1cc(NC(=O)c2cccc3c2C(=O)N(Cc2cccnc2)C3)cc(OC)c1OC	3.8	1	-1.4%	-6%	-2	-65%[inhibitor]	-12%
CCOC(=O)[C@@H]1[C@H]2COc3ccccc3[C@H]2N2C(=O)N(c3ccc(F)cc3)C(=O)[C@]12C	2.6	-12	2.2%	13%	-3	?	-3%
Cc1ccc(/C(N)=N/OC(=O)c2cccs2)cc1	-3.4	-6	-0.9%	-5%	4	-3%	11%
COc1ccc(C(O)c2nccn2Cc2ccccc2)cc1 (centres undefined)	1.7	-2	-0.7%	7%	11	6%	-6%
CS(=O)(=O)N1CCN(c2ccc(NC(=O)c3cc4ccccc4o3)cc2)CC1	-2.3	4	-0.3%	1%	11	23%	3%
CC1CCC2(CC1)NC(=O)N(CC(=O)N1CCN(S(=O)(=O)c3ccc4c(c3)CCC4)CC1)C2=O (centres undefined)	·	13	-1.7%	·	1	-71%[inhibitor]	4%
C=CCNC(=S)Nc1ccc(Br)cc1F	1.2	·	-0.1%	27%	30	31%	2%
COc1ccc(OCC(O)CNC(=O)c2ccc(OC)cc2)cc1 (centres undefined)	-0.8	0	0.7%	10%	3	?	-1%
CCc1ccc2c(c1)C(c1ccc([N+](=O)[O-])cc1)=NNC(c1ccc(F)cc1)=N2	1.5	14	0.7%	5%	-11	1%	-12%
CC(C)=CCC/C(C)=C/CNC(=O)C[C@H]1C[C@H](C(=O)N2CCOCC2)[C@@]2(CCC3CCCC3)c3[nH]c4cc(-c5ccco5)ccc4c3CCN2C1=O	·	-2	2.9%	·	·	·	-2%
CCn1c(N)c(C(=O)NCc2cccnc2)sc1=S	-0.6	14	-1.4%	-13%	1	10%	4%
CCCCn1c(N)c(N(CC(C)C)C(=O)CCCc2nc3ccccc3s2)c(=O)[nH]c1=O	·	-8	7.1µM*	·	-11	-16%	4%
Cc1ccc2[nH]nc(C(=O)N3CCCC(C(=O)c4ccc(Cl)cc4)C3)c2c1 (centres undefined)	3.7	3	·	-10%	-4	-13%[15.4 µM]	14µM*
O=C(O)c1ccc(/C=N/NC(=O)C2CC2(c2ccccc2)c2ccccc2)cc1 (centres undefined)	-3.3	·	·	11%	6	·	·
O=C(CSC1=Nc2ccccc2C2=NC(CC(=O)NCc3ccco3)C(=O)N12)NCc1ccco1 (centres undefined)	2.7	-14	-15%	-24%	7	39%	12%
Cc1ccc(C2CC(=O)Oc3cc(O)ccc32)cc1 (centres undefined)	?	0	-1.1%	-6%&0%	-4	·	-4%
CC(=O)N1N=C(c2ccncc2)CC1c1ccccc1O (centres undefined)	0.8	·	·	11%	-1	5%[15.4 µM]	2%
O=C(Cc1ccccc1)NNC(=O)c1ccc(Br)o1	-2.4	5	-0.9%	1%	-5	?	8%
COc1ccccc1CN(C)C(=O)c1cccc(S(=O)(=O)N2CCCc3ccccc32)c1	·	4	4.9%	·	-7	-14%	35µM*
SMILES	Menin-MLL FL inh	CtBP-E1A blk	ClpP mod	Sfp inh	TRPV1 PAM	gsp agonist	gsp antag
COc1ccccc1C1C=C(c2ccccc2)Nc2nnnn21 (centres undefined)	1.8	0	-2.5%	8%	2	-39%[inhibitor]	6%
CCOC(=O)N1CCC(NC(=O)C2CCCN(S(C)(=O)=O)C2)CC1 (centres undefined)	2.1	13	-0.1%	28%	-2	-2%	3%
O=C(NCCc1ccccc1)C1CCC(=O)N(CCCN2CCCC2=O)C1 (centres undefined)	2.1	0	-0.4%	14%	-2	6%	-10%
Cn1cnnc1Sc1ccc(/C=C/C(=O)c2ccc(O)cc2)cc1[N+](=O)[O-]	0.4	·	-0.2%	-10%	-2	5%	3%
CCOC(=O)c1cc(C#N)c(SCC(=O)c2cc(C#N)c(SC)nc2C)[nH]c1=O	?	-27	-11%	32µM*	6	10%	?
O=C(CN1C(=O)CC(c2ccccc2)S(=O)(=O)c2ccccc21)N1CCCC1 (centres undefined)	-0.5	-3	·	13%	?	0%[15.4 µM]	·
O=C1c2ccccc2C(=O)N1CCc1ccccn1	-0.8	6	-1.1%	6%	-4	5%	9%
CCOC(=O)C1CCN(C(=O)C(C)c2ccc([N+](=O)[O-])cc2)CC1 (centres undefined)	-0.8	0	·	10%	-12	-5%	3%
C=CCn1c(CCNC(=O)c2cccs2)nnc1SCC(=O)Nc1cccc(Cl)c1C	-2.0	2	?	11%	-6	5%	-7%
CCN(C(=O)CSc1ncccn1)c1cccc2ccccc12	·	·	0.5%	·	·	7%	-4%
COc1cc(C(=O)NC2CC(C)(C)CC(C)(C)C2)ccc1OC1CCN(C(C)=O)CC1	1.6	-2	0.1%	7%	-8	-11%	-1%
COC(=O)c1cn(NC(=O)Cc2ccc(OC)c(OC)c2)c(=O)c2ccccc12	-0.9	-8	-7.3%	25%	-23	-17%	-3%
COc1cc(/C=N/NC(=O)C[n+]2ccccc2)cc(OC)c1OC	4.3	0	0.8%	11%	-5	3%	12%
Cc1ccc(NC(=S)N2CCC(NC(=O)c3ccc(C)cc3)CC2)cc1	-2.6	-1	·	9%	-7	3%[15.4 µM]	-5%
CC(Oc1ccc(S(=O)(=O)N2CCCC2)cc1[N+](=O)[O-])C(=O)NC(C)c1ccccc1 (centres undefined)	·	0	-2.2%	·	1	-8%[15.4 µM]	-5%
